Calb FLC – C. albicans growth modulation with fluconazole; 300,000 compounds, 0.57% hits; C. albicans CaCi-2 (fluconazole-resistant clinical isolate) + fluconazole, Alamar Blue growth, 48 h; growth inhibition, % (test concentration not listed);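 active = most replicates above 75%; inconclusive = exactly half above 75%; inactive = most below 75%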;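 also: all wells also contain fluconazole at 8 µg/ml as a sub-toxic cotreatment; 0% = median of DMSO wells and 100% = median of geldanamycin control wells; wells of about 8 µL received 7.5 nL stock; the first replicate is given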
Vif TR-FRET – HIV-1 Vif–A3G interaction blockers – biochemical, TR-FRET, GST-Vif 1-94, biotin-A3G peptide, dose response retest, primary screen (AID 1117319); 260,000 compounds, 0.57% hits; inhibition, %, or IC50 in µM where a hit was titrated; TR-FRET GST-Vif / biotin-A3G peptide binding; higher % means a stronger effect; test concentration not given here; strong numbers were not always called active;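 active = above the screen mean plus three standard deviations and confirmed in dose response; inconclusive = results disagree or hit not tested in dose response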;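 also: Vif residues 1-94 fused to GST binding biotinylated APOBEC3G peptide 110-148; 0% = full assay without inhibitor and 100% = GST in place of GST-Vif; retest series ran down from 100 µM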
RanGTP-Impb inh – disruptors of Ran-importin-beta complex formation – biochemical, FRET, CFP-Ran, YFP-importin-beta, homogeneous, primary screen | cell-free CFP-Ran/YFP-importin-beta FRET ratio | inhibition, % (test concentration not listed) | 300,000 compounds, 1.1% hits;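 active = most replicates above 15%; inconclusive = exactly half above 15%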;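 also: 0% = DMSO wells and 100% = Ran loaded with GDP instead of GTP; wells of about 40 µL received 100 nL stock; the first replicate is given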
ALR inh – inhibitors of human sulfhydryl oxidase ALR; AID 485317; 290,000 compounds, 3.8% hits; purified ALR, DTT oxidation, H2O2 HRP-luminol luminescence; inhibition, % (test concentration not listed);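 active = mean and each replicate at 75% or more; inconclusive = only one of the two met; inactive = neither met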;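 also: stock transfer was 7.5 nL into about 7.5 µL; 0% = neutral wells and 100% = wells with inactivated enzyme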
Target sequence (P55789 whole entry, looked up): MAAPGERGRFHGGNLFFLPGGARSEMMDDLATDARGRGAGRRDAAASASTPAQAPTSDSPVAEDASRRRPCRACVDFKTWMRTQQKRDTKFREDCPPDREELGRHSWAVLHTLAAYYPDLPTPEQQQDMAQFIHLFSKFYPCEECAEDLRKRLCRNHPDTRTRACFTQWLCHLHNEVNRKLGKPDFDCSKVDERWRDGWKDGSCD
Beta2AR agonist – agonists of human beta-2 adrenergic receptor inducing internalization. P07550. response, % (test concentration not listed). 340,000 compounds, 0.43% hits. Am2.2-beta2AR cells, FAP receptor internalization, flow cytometry; reference of the scale not given here;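 active = response above a set limit, near 3 SD of response in nonfluorescent compounds, cut at about 42% in these data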;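 also: stock transfer was 100 nL into about 11 µL; a reference agonist was the positive control; negative values mostly stem from fluorescent compounds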
Target sequence (P07550 whole entry, looked up): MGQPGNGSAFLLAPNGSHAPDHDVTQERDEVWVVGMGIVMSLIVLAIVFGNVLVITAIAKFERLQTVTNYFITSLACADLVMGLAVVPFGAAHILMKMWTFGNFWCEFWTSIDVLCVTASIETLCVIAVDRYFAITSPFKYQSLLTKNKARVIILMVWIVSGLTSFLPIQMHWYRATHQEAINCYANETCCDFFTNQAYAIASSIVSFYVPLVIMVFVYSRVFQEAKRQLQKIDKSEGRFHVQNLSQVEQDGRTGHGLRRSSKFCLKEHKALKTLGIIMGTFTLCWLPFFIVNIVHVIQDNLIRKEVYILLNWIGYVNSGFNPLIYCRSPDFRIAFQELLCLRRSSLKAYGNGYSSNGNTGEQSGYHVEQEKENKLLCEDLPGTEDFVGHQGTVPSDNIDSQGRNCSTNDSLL
HNF4A DNA FP – change in binding of human HNF4 alpha to DNA; P41235; activity change, % at 10 µM; 360,000 compounds, 0.3% hits; HNF4a-FITC DNA binding, fluorescence polarization, 1 h; AID 1224865; in the data active = activity change above about 30%, passing the limit was not always enough;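 also: controls were the assay level and a saturating level of protein; the project sought stronger binding though the title names inhibitors; some compounds called inactive have numbers as strong as hits; positive values seem to mean higher polarization but the record does not say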
Target sequence (P41235 whole entry, looked up): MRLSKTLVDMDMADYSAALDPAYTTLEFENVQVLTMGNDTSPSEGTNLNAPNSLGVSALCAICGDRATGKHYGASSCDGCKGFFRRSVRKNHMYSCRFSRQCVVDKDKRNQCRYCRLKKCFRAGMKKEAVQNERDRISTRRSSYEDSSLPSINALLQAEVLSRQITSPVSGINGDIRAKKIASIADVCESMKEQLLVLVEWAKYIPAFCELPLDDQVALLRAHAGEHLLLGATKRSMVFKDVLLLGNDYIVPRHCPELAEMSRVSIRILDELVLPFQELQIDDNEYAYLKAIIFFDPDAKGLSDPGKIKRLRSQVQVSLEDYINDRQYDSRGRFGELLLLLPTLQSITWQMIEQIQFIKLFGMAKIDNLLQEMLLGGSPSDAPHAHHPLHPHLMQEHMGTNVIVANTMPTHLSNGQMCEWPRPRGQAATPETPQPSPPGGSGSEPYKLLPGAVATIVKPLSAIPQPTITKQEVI
LANA-H2A inh – blocks KSHV LANA binding to histone H2A/H2B; cell-free LANA-H2A/H2B peptide, fluorescence polarization; 320,000 compounds, 0.6% hits; inhibition, % (test concentration not listed); Q9QR71; AID 2629; in the data active = inhibition mostly above about 10%, no sharp cut-off; inactive = mostly below about 6.7%;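 also: stock transfer was 7.5 nL into about 10 µL; 0% = median of vehicle wells and 100% = median of positive control wells; one replicate is shown; the record names a cut of 25% in any replicate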
Starred values were filed as active, the others as inactive.

Screening Cc1ccccc1S(=O)(=O)/N=C(/c1ccccc1)N1CCOCC1 returned Calb FLC 3, Vif TR-FRET -13%, RanGTP-Impb inh -0.9, ALR inh -18, Beta2AR agonist -1, HNF4A DNA FP 3.4 and LANA-H2A inh -2.2.
`CCCCCn1c(=O)[nH]c2cc(C(=O)O)ccc2c1=O` gave Calb FLC -16, Vif TR-FRET 4%, RanGTP-Impb inh -1.6, ALR inh 50, Beta2AR agonist 8, HNF4A DNA FP 2.1 and LANA-H2A inh 3.4.
`COc1ccc(-c2cc(-c3ccc(OC)cc3)nc(-c3ccc4c(c3)NC(=O)CO4)c2)cc1` gave Calb FLC 14, Vif TR-FRET -18%, RanGTP-Impb inh 5.5, Beta2AR agonist -11, HNF4A DNA FP 1.7 and LANA-H2A inh 3.6.
For COc1ccc2c(c1)c1ccccc1n2C the results were Calb FLC 2, Vif TR-FRET 2%, RanGTP-Impb inh -2.7, Beta2AR agonist 3, HNF4A DNA FP -1.4 and LANA-H2A inh -3.2.
`CCN(CC(=O)Nc1c(F)cccc1F)C(=O)c1ccc2c(c1)OCCO2` gave Calb FLC 0, Vif TR-FRET 9%, ALR inh 0, Beta2AR agonist -3, HNF4A DNA FP -3.0 and LANA-H2A inh -0.8.
Cc1cc(NC(=O)c2ccc(N3C(=O)CCC3=O)cc2)no1 was read as Calb FLC -5, Vif TR-FRET 1%, RanGTP-Impb inh -1.1, ALR inh -3, Beta2AR agonist 13, HNF4A DNA FP -2.9 and LANA-H2A inh -1.1.
N#Cc1ccc(S(=O)(=O)N2CCC(C(=O)N3CCN(Cc4ccc5c(c4)OCO5)CC3)CC2)cc1 was read as Vif TR-FRET 8%, ALR inh -4, Beta2AR agonist -6 and HNF4A DNA FP -0.1.
Screening Cc1cc([N+](=O)[O-])nn1CC(=O)NCc1cccs1 returned Calb FLC -7, Vif TR-FRET 2%, RanGTP-Impb inh 0.8, Beta2AR agonist -2 and HNF4A DNA FP 2.2.
`Cn1c(N)c(C(=O)CSc2nc3ccccc3n2-c2ccccc2)c(=O)n(C)c1=O` gave Calb FLC -15, Vif TR-FRET 1%, RanGTP-Impb inh -2.2, ALR inh 4, Beta2AR agonist 13, HNF4A DNA FP -2.9 and LANA-H2A inh -7.1.
`CN(C)c1ccc(/C=C/c2nnnn2-c2ccccc2)cc1` gave Calb FLC -39, Vif TR-FRET 4%, RanGTP-Impb inh 3.0, ALR inh 99*, Beta2AR agonist -5, HNF4A DNA FP 9.1 and LANA-H2A inh 2.3.
CC(C)CNC(=O)Nc1ccc(F)c(Cl)c1 was read as Calb FLC 30, RanGTP-Impb inh 3.4, ALR inh -3, Beta2AR agonist 0, HNF4A DNA FP 0.2 and LANA-H2A inh -4.5.
`CC(Sc1nnc(COc2ccc3ccccc3c2)n1C)C(=O)O` (configuration not stated) gave Calb FLC -6, Vif TR-FRET 7%, RanGTP-Impb inh -4.1, ALR inh -14, Beta2AR agonist -3, HNF4A DNA FP -0.3 and LANA-H2A inh -5.0.
For Cc1cc(N2CCCCC2)nc2ccc(NC(=O)c3ccc(Br)o3)cc12 the results were Calb FLC 26, Vif TR-FRET inconclusive, RanGTP-Impb inh 3.5, Beta2AR agonist 0, HNF4A DNA FP 2.3 and LANA-H2A inh -0.4.
CCCc1nnc(NC(=O)CCC(=O)N2CCC(C)CC2)s1 was read as Calb FLC 8, Vif TR-FRET -2%, RanGTP-Impb inh 0.9, ALR inh -6, HNF4A DNA FP 3.1 and LANA-H2A inh 3.3.
Screening COCCNC(=O)c1cnn2c1NC(c1ccco1)CC2C(F)(F)F (configuration not stated) returned Calb FLC -1, Vif TR-FRET 14%, RanGTP-Impb inh inconclusive, ALR inh -1, Beta2AR agonist 2, HNF4A DNA FP -5.3 and LANA-H2A inh 3.6.
Screening C#CCOCCOCCOCCNc1nc(N2CCN(C(=O)[C@H](CCCN=C(N)N)n3cc(C(N)[C@@H](C)CC)nn3)CC2)nc(N2CCN(C(=O)[C@H](CO)n3cc([C@@H](N)C(C)C)nn3)CC2)n1 (some centres not stated) returned Vif TR-FRET 3%, Beta2AR agonist -10, HNF4A DNA FP 5.2 and LANA-H2A inh -5.9.
Screening COc1ccc(N2C(=O)CC(Nc3ccc(C)cc3)C2=O)cc1 (configuration not stated) returned Calb FLC -10, Vif TR-FRET -1%, RanGTP-Impb inh -0.6, ALR inh -14, Beta2AR agonist -18, HNF4A DNA FP 3.2 and LANA-H2A inh 1.3.
For COc1ccc(C)cc1NC(=O)NC1CCCc2ccccc21 (configuration not stated) the results were Calb FLC 3, Vif TR-FRET 8%, RanGTP-Impb inh -0.1, ALR inh -1, Beta2AR agonist -8, HNF4A DNA FP 0.4 and LANA-H2A inh -0.9.
CC1(C)Cc2c(sc3ncn4nc(-c5ccco5)nc4c23)CO1 was read as Calb FLC 3, Vif TR-FRET -2%, RanGTP-Impb inh -1.7, ALR inh -7, Beta2AR agonist -3, HNF4A DNA FP -0.3 and LANA-H2A inh 4.1.
For O=C(O)c1ccc(CNCc2c(Cl)cccc2Cl)cc1 the results were Calb FLC 4, Vif TR-FRET 6%, RanGTP-Impb inh inconclusive, ALR inh -6, Beta2AR agonist 1, HNF4A DNA FP -0.4 and LANA-H2A inh -3.2.
For CC(C)=CCCC1(C)C=Cc2c(c(C)cc3c2[nH]c2cc(O)ccc23)O1 (configuration not stated) the results were Calb FLC 7, RanGTP-Impb inh -2.0, ALR inh -45, Beta2AR agonist -7, HNF4A DNA FP 1.6 and LANA-H2A inh 4.6.
Screening CCOC(=O)c1ccc(NC(=O)CCCN2C(=O)NC3(CCCC3)C2=O)cc1 returned Beta2AR agonist -7, HNF4A DNA FP -2.1 and LANA-H2A inh 12*.
Screening Cc1nnc(SCc2ccccc2Cl)n1CC1CCCO1 (configuration not stated) returned Calb FLC -5, Vif TR-FRET -5%, RanGTP-Impb inh -1.6, Beta2AR agonist 3, HNF4A DNA FP -3.5 and LANA-H2A inh -0.6.
For O=C(CNC(=O)c1cccs1)N/N=C/c1c(F)cccc1Cl the results were Calb FLC 1, Vif TR-FRET -6%, RanGTP-Impb inh 5.8, ALR inh -15, Beta2AR agonist -13, HNF4A DNA FP -1.9 and LANA-H2A inh 1.8.
O=C(CN1CCC(Cc2ccccc2)CC1)N1CCc2ccccc2C1 was read as Calb FLC 17, Vif TR-FRET 13%, RanGTP-Impb inh -0.4, ALR inh 4, Beta2AR agonist -10, HNF4A DNA FP 2.8 and LANA-H2A inh -6.7.
For CCOC(=O)N1CCN(C(=O)CSc2nnc(-c3cccc(Cl)c3)o2)CC1 the results were Calb FLC -1, Vif TR-FRET inconclusive, RanGTP-Impb inh -3.6, ALR inh -10, Beta2AR agonist -2, HNF4A DNA FP -1.4 and LANA-H2A inh -1.9.
For CCOc1ccc(/C=C2\SC(=S)N(CCC(=O)Nc3cccc(C(=O)O)c3)C2=O)cc1 the results were Calb FLC -5, Vif TR-FRET -6%, RanGTP-Impb inh 0.0, ALR inh -4, Beta2AR agonist 3, HNF4A DNA FP -1.3 and LANA-H2A inh -2.2.
For CCNC(=O)COc1ccc(S(=O)(=O)Nc2ccccc2)cc1 the results were Calb FLC -4, Vif TR-FRET 26%, RanGTP-Impb inh 2.2, ALR inh -7, Beta2AR agonist -2, HNF4A DNA FP 0.3 and LANA-H2A inh -0.7.
`Cn1c(N)nc2nc[nH]c2c1=S` gave Vif TR-FRET 2%, Beta2AR agonist -12 and HNF4A DNA FP 3.1.
Screening Cc1ccc(S(=O)(=O)N(C)C)cc1NC(=O)C1Cc2ccccc2CN1C(=O)c1ccco1 (configuration not stated) returned Calb FLC -11, RanGTP-Impb inh -0.4, ALR inh 0, Beta2AR agonist 6, HNF4A DNA FP -1.2 and LANA-H2A inh -0.9.
O=C(COC(=O)COc1ccc(Br)cc1)NCC1CCCO1 (configuration not stated) was read as Vif TR-FRET -9%, Beta2AR agonist -1, HNF4A DNA FP 1.0 and LANA-H2A inh -3.2.
`CN1CCN(c2oc(COc3ccc(-c4ccccc4)cc3)nc2C#N)CC1` gave Calb FLC 14, Vif TR-FRET 1%, RanGTP-Impb inh 1.4, ALR inh -5, Beta2AR agonist 9, HNF4A DNA FP 1.4 and LANA-H2A inh -3.5.
CC1CCC2(CC1)NC(=O)N(CC(=O)N(Cc1ccccc1)C(C)(C)C)C2=O (configuration not stated) was read as ALR inh 0, Beta2AR agonist 6, HNF4A DNA FP -0.7 and LANA-H2A inh 0.2.
CCCCNC(=O)c1onc(CSc2ccc(C(C)C)cc2)c1C(=O)O was read as Calb FLC -8, Vif TR-FRET 71%, RanGTP-Impb inh 0.4, ALR inh 67, Beta2AR agonist 0, HNF4A DNA FP 2.9 and LANA-H2A inh 1.5.
Screening CN(C)c1ccc(/C=C(\NC(=O)c2ccccc2)C(=O)NCCCn2ccnc2)cc1 returned Calb FLC 0, RanGTP-Impb inh -1.1, ALR inh 99*, Beta2AR agonist 4, HNF4A DNA FP 1.1 and LANA-H2A inh -5.5.
Screening COc1cccc(OC)c1OCCOCCN1CCN(C)CC1 returned Calb FLC -12, Vif TR-FRET 2%, RanGTP-Impb inh 5.0, ALR inh -6, Beta2AR agonist 6, HNF4A DNA FP -0.4 and LANA-H2A inh -2.0.
O=C(c1cc2sccc2n1Cc1ccc(F)cc1)N1CCc2ccccc21 was read as Calb FLC -32, RanGTP-Impb inh 8.5, ALR inh -4, Beta2AR agonist 33, HNF4A DNA FP 3.9 and LANA-H2A inh 1.5.
c1ccc2c(-c3cc(C4CCNCC4)[nH]n3)cccc2c1 was read as Calb FLC -5, Vif TR-FRET inconclusive, RanGTP-Impb inh -2.8, ALR inh 6, Beta2AR agonist 12, HNF4A DNA FP -0.7 and LANA-H2A inh 1.8.
`CCCC(C)NCC(=O)Nc1ccccc1-c1ccccc1` (configuration not stated) gave Calb FLC -25, Vif TR-FRET 7%, RanGTP-Impb inh 0.0, ALR inh -20, Beta2AR agonist 4, HNF4A DNA FP -1.0 and LANA-H2A inh 1.5.
For O=C(/C=C/c1ccccc1)NCCN1CCOCC1 the results were Calb FLC 8, Vif TR-FRET -5%, RanGTP-Impb inh -1.1, ALR inh 0, Beta2AR agonist -2, HNF4A DNA FP -0.1 and LANA-H2A inh -3.2.
For O=C(c1ccccc1NS(=O)(=O)c1cccc2cccnc12)N1CCOCC1 the results were Calb FLC 8, Vif TR-FRET -7%, RanGTP-Impb inh 4.0, ALR inh 6, Beta2AR agonist 7, HNF4A DNA FP 0.1 and LANA-H2A inh 4.9.
Cc1cc(/C=N/NC(N)=S)c(C)n1-c1cccc(Cl)c1 was read as Calb FLC 104*, RanGTP-Impb inh 0.5, ALR inh -1, Beta2AR agonist -5, HNF4A DNA FP -2.4 and LANA-H2A inh -1.5.
Screening Cc1ccc(S(=O)(=O)N(Cc2ccccc2F)C(=O)N2CCN(C)CC2)cc1 returned Calb FLC 9, Vif TR-FRET 4%, RanGTP-Impb inh 0.2, ALR inh 10, Beta2AR agonist -2, HNF4A DNA FP -2.0 and LANA-H2A inh -1.3.
Screening Cc1nn(-c2ccccn2)c2nc(-c3cccs3)cc(C(=O)NCc3ccco3)c12 returned Calb FLC 2, Vif TR-FRET 6%, RanGTP-Impb inh 1.6, ALR inh 5, Beta2AR agonist 43*, HNF4A DNA FP 0.6 and LANA-H2A inh 1.5.
C=CCn1c(SCc2ccc(C(=O)OC)cc2)nnc1-c1sc(N)nc1C was read as Calb FLC -8, RanGTP-Impb inh -1.5, ALR inh -3, Beta2AR agonist -4, HNF4A DNA FP 2.9 and LANA-H2A inh -2.0.
Cc1cc(C)c2c(n1)nn1c(N3CCN(c4ccccc4C)CC3)cc(C)nc21 was read as ALR inh 60, Beta2AR agonist 10, HNF4A DNA FP 0.1 and LANA-H2A inh 5.5.

An unsorted share of the library; any-hit rate near 6.3%.
